From PubChem BioAssay
AID504770: growth inhibitors of E. coli YBA685 in a screen for V. cholerae RctB (chromosome II replication) inhibitors. E. coli YBA685 rctB-dependent plasmid, OD600 growth, 3 h; active compounds read low. z-score (concentration not given with the values). 130,000 compounds, 0.27% hits;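 active means z-score under -2 on both plates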;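 further: wells of about 30 µL received 100 nL stock; score is relative to mean and SD of the test wells; the first replicate is given; strong numbers were not always called active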
CapD inh: CapD enzyme inhibition | purified CapD enzyme, fluorescence intensity read-out; active compounds read low; some hits fall short of the stated cut | z-score (concentration not given with the values) | 140,000 compounds, 0.23% hits | AID 492967;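 active means z-score under -4 in either of two replicates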;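 further: stock transfer was 100 nL into about 40 µL; score is relative to mean and spread of the plate; one replicate is shown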
The depositor's hits bear a star; i = inactive; x = no result given; & = joins results of further samples.

Results follow in this order: AID504770 | CapD inh
CCN=c1scc(-c2ccc(OC)cc2)n1/N=C(\C)c1ccc(C)o1
→ 0.75 | x
CC(=O)c1cccc(NC(=O)CSC2=C(C#N)C(c3ccccc3C(F)(F)F)C3=C(CCCC3=O)N2)c1 (stereo not drawn)
→ x | 3.6
O=C(NCCc1ccccc1)c1ncn[nH]1
→ -0.5 | 0.16
C=CCSC1=C(C#N)C(c2ccccc2C)CC(=O)N1 (stereo not drawn)
→ -0.2 | -0.15
COc1ccccc1-c1nn(CNc2ccccc2)c(=S)o1
→ 0.35 | 1.9
Cn1c(=N)n(CC(=O)c2ccccc2)c2ccccc21
→ -0.2 | 0.24
O=C(O)CCN(Cc1ccccc1)S(=O)(=O)c1cccs1
→ -0.2 | x
Cc1ccc(N2C(=O)c3cc(N(C)C)ccc3P2(=O)N2CCOCC2)cc1 (stereo not drawn)
→ 1.4 | x
Cn1c(=O)c2ccccc2n2c(CN3C(=O)NC4(CCCc5sccc54)C3=O)nnc12 (stereo not drawn)
→ 1.8 | x
O=C(NC1CCCC1)c1cc(-c2ccc(Br)cc2)on1
→ -2.5* | 0.54
N#CCn1ccn(-c2cccc3ccccc23)c(=O)c1=O
→ 0.2 | x
Nc1n[nH]c(-c2ccccc2)c1-c1ccccc1
→ 0.4 | 1.6
CC(=O)OCC(=O)c1ccc(C(F)(F)F)cc1
→ -0.75 | -0.59
COC(=O)CN(c1ccccc1)S(=O)(=O)c1ccc(C)cc1
→ -1 | 0.035
COc1ccc(C(=O)O)s1
→ 0.25 | x
Cc1ccc2c(c1)CNc1ccccc1O2
→ -0.3 | 0.21
O=C(O)CC1C(=O)NN=C2c3ccccc3N=CN21 (stereo not drawn)
→ -0.65 | x
O=C1CCCN1c1ccc(S(=O)(=O)Nc2c(NC3CCCCC3)c3ccccc3oc2=O)cc1
→ 0.75 | 0.86
O=C(OCc1ccccc1)c1ccc(O)cc1
→ 0.15 | 0.025
O=C(Nc1nc(-c2ccc(Br)cc2)cs1)c1c(O)c2ccccc2[nH]c1=O
→ x | 0.36
O=C1C2CC=CCC2C(=O)N1CCc1nc(-c2ccccc2)no1 (stereo not drawn)
→ -0.2 | -0.15
CCCCS(=O)(=O)Nc1ccc2ncn(C)c(=O)c2c1
→ 1.1 | 18
O=C(Oc1ccc(Cl)cc1)c1ccc2nonc2c1
→ -0.95 | -0.38
CCCOc1ccccc1C1NC(=O)NC(C)=C1C(=O)OCC1CCCCC1 (stereo not drawn)
→ -0.35 | 0.32
CC1=C(C(=O)N2CCOCC2)C(c2cc(Cl)ccc2OC(F)F)n2c(nc3ccccc32)N1 (stereo not drawn)
→ 0.1 | 12
CCOc1ccc(NC(=O)c2c(OC)cccc2OC)cc1
→ -0.25 | 0.71
FC(F)(F)c1nc2ccccc2nc1N/N=C/c1ccc(Cl)cc1
→ x | -0.33
CC(C)(C)n1cc(C(=O)c2ccccc2O)cn1
→ -0.25 | -0.36
CC(=O)N1C(=O)c2cccc3cccc1c23
→ 0 | 10
CCSc1sc(CC)cc1C1C(C(=O)Nc2ccccn2)=C(C)NC2=C1C(=O)CC(c1ccccc1)C2 (stereo not drawn)
→ x | 3.4

Part of the list above, set out differently.
| smiles | AID504770 | CapD inh |
| --- | --- | --- |
| O=C(OCc1ccccc1)c1ccc(O)cc1 | 0.15 | 0.025 |
| Cc1ccc(N2C(=O)c3cc(N(C)C)ccc3P2(=O)N2CCOCC2)cc1 (stereo not drawn) | 1.4 | x |
| O=C(O)CC1C(=O)NN=C2c3ccccc3N=CN21 (stereo not drawn) | -0.65 | x |

2 entries drawn at random from those above:
Results follow in this order: AID504770 | CapD inh
CCOc1ccc(NC(=O)c2c(OC)cccc2OC)cc1
→ -0.25 | 0.71
O=C(NC1CCCC1)c1cc(-c2ccc(Br)cc2)on1
→ -2.5* | 0.54

Next compounds
Results follow in this order: AID504770 | CapD inh
CC12CC(c3ccccc3O1)C(S(=O)(=O)c1ccccc1)C(=O)N2 (stereo not drawn)
→ 0.55 | -0.35
Nc1nc(Br)c2c(F)cccc2c1-c1ccccc1
→ 0.45 | -0.44
CN(NS(=O)(=O)c1ccc(Cl)cc1)c1cnn(C)c(=O)c1Cl
→ -0.85 | -0.61
Cc1cccc(NC(=O)CN(C2=NC3CS(=O)(=O)CC3S2)c2ccccc2)c1 (stereo not drawn)
→ 0.7 | -1.3
CC(C)n1cc(-c2cnc3ccccc3n2)cn1
→ x | 53
Cn1ncc(Br)c1C(=O)Oc1ccccc1Cl
→ 2.4 | -0.77
COc1ccc(S(=O)(=O)NNC(N)=S)cc1
→ 1.5 | x
Cc1nnc(Sc2cc(C(=O)N3CCC4(CC3)OCCO4)c3ccccc3n2)s1
→ 0.2 | 0.56
Oc1ccccc1-c1noc(-c2ccccc2O)n1
→ -0.35 | 0.68
CCCCn1ccnc1C(=O)c1cccc(S(=O)(=O)N2CC(C)CC(C)C2)c1 (stereo not drawn)
→ -0.65 | x
O=C(COc1ccccc1)Nc1nc(-c2cccs2)cs1
→ 0.05 | i
O=C1/C(=C/c2ccc(-c3ccc(Br)cc3)o2)C=C(c2ccccc2)N1c1ccc(Br)cc1
→ x | 1.2
COC(=O)C12CCC(=O)C(C(=O)OC)(CCC1=O)C2
→ -0.1 | -0.4
Cc1cc(=O)oc2cc(OC(C)C(=O)Nc3nnc(C4CCCO4)s3)ccc12 (stereo not drawn)
→ -0.45 | 28
Cc1csc(NC(=O)C2CCCN2C(=O)Oc2ccccc2)n1 (stereo not drawn)
→ -0.2 | 0.18
O=[N+]([O-])c1ccc(N2CCCCC2)cc1Sc1nc2ccccc2[nH]1
→ x | -0.57
CC1CCc2c(sc(NC(=O)CN3C(=O)CCC3=O)c2C(N)=O)C1 (stereo not drawn)
→ 0.05 | x
CCCCNS(=O)(=O)c1ccc(OCC(N)=O)cc1
→ -0.55 | -0.45
S=C(NCCSc1nnnn1-c1ccccc1)Nc1ccccc1
→ -1.6 | -0.17
CCOc1ccc(C2C(C#N)=C(SCc3ccccc3Cl)NC(=O)C2C(=O)OC)cc1 (stereo not drawn)
→ x | 0.03
CCC(=O)NC(c1c(C)[nH]n(-c2ccccc2)c1=O)(C(F)(F)F)C(F)(F)F
→ -3.2* | -0.055
CC(CC(=O)NCc1ccccc1)n1cccn1 (stereo not drawn)
→ 0.5 | 0.32
CCN1C[C@]2(C)CC[C@H](OC)[C@]34C2[C@H](OC(C)=O)C2(OCO[C@@]25CC(OC)C2C[C@]3(O)C5[C@H]2OC)[C@@H]14 (stereo partly drawn)
→ x | 0.23
COc1ccccc1-n1c(SCC(=O)Nc2cc(OC)c(OC)c(OC)c2)nc2[nH]ncc2c1=O
→ x | -0.55
O=C(Nc1ccc(F)cc1)[C@@H]1CCCN1S(=O)(=O)c1ccc(Cl)cc1
→ 0.05 | x
CCOc1ccc(NC(C)=O)cc1
→ -0.45 | -0.2&0.41
Cc1ccc(S(=O)(=O)N2CCCC(C(=O)NCc3ccco3)C2)cc1 (stereo not drawn)
→ 0.05 | 0.15
CC(C)c1ccc(/C=C2\CSc3ccccc3C2=O)cc1
→ 0.2 | -1.5
O=C(OCCc1cccc(F)c1)N1CCN(c2ccc(C(F)(F)F)cn2)CC1
→ x | 3.2
CCCCCc1ccc(-c2ccc(C(=O)OC34CCC5(CCC)CC3CCC5C4)cc2)cc1 (stereo not drawn)
→ x | 0.045

Profiles from above. Order of screens: AID504770	CapD inh
`Cc1nnc(Sc2cc(C(=O)N3CCC4(CC3)OCCO4)c3ccccc3n2)s1` across the screens: 0.2	0.56
`O=C(OCc1ccccc1)c1ccc(O)cc1` across the screens: 0.15	0.025
`O=C(Nc1nc(-c2ccc(Br)cc2)cs1)c1c(O)c2ccccc2[nH]c1=O` across the screens: x	0.36
`CC12CC(c3ccccc3O1)C(S(=O)(=O)c1ccccc1)C(=O)N2` (stereo not drawn) across the screens: 0.55	-0.35
`O=C(NCCc1ccccc1)c1ncn[nH]1` across the screens: -0.5	0.16

Further entries follow:
Results follow in this order: AID504770 | CapD inh
CS(=O)(=O)c1ccc(CNS(=O)(=O)c2ccc3oc(=O)ccc3c2)cc1
→ x | -0.21
CC(=O)Nc1ccc(C(=O)OCC(=O)Nc2ccc(C)cc2)cc1
→ -0.25 | 1.1
CC(NS(=O)(=O)c1ccc(Cl)cc1)C(c1cccs1)N1CCN(C)CC1 (stereo not drawn)
→ 1.4 | 43
NC(=S)c1ccc(C(F)(F)F)cc1Cl
→ 0.65 | 0.51
O=C(O)c1cccc(N=Cc2ccc(N3CCOCC3)cc2)c1
→ -0.45 | 9.7
O=C(CSc1nc2sc3c(c2c(=O)n1-c1ccccc1)CCCC3)NCCCO
→ x | 0
O=c1c2ccccc2cnn1-c1ccc(F)cc1F
→ 2 | x
COc1ccc(-c2csc(C(=O)N3CCN(C)CC3)c2)cc1
→ x | -0.23
Cc1ccc(C)n1-c1ccc(C(=O)OCC(=O)c2ccc(Cl)cc2)cc1
→ 0.35 | 0.16
Clc1cccc(N2CCN(c3ccc4nnnn4n3)CC2)c1
→ x | -0.29
CCCCCCc1ccc(C(=O)NNC(=O)Cc2csc3nc(-c4ccccc4)nn23)cc1
→ x | -0.74
CC(C)(C)S(=O)(=O)c1cccc(S(=O)(=O)C(C)(C)C)c1
→ 0.4 | 0.41
CN(C)S(=O)(=O)c1ccc2c(c1)CCN2C(=O)CCC(=O)O
→ x | 0.17
Cc1onc(-c2c(F)cccc2Cl)c1C(O)c1ccc(F)cc1 (stereo not drawn)
→ 1.5 | 0.05
COCc1oc2c(cc(NS(=O)(=O)c3ccc(Br)cc3)c3ccccc32)c1C(=O)OC
→ x | -0.005
CCn1c(C)cc2c(c1=O)C(C(C)C)C(C#N)=C(N)O2 (stereo not drawn)
→ -1 | x
O=C(NOC(=O)c1cccs1)c1ccccc1
→ -2.6* | 0.83
O=C(N/N=C/c1c[nH]c2cc(OCc3ccccc3)ccc12)c1ccc(OC(F)(F)F)cc1
→ x | -0.23
O=C(Nc1n[nH]c(-c2ccccc2)c1Br)c1ccc(Cl)cc1
→ x | -0.42
CC(=O)OC(C(=O)NC1CCCCC1)c1ccccc1 (stereo not drawn)
→ -0.2 | x
CCOC(=O)c1ccccc1NCn1nnc2ccccc21
→ 0.8 | 41
CCOC(=O)c1cncc(C#CCOC(=O)c2ccc(Cl)cn2)c1
→ -0.55 | 0.2
CCOC(=O)C1=C(C)NC2=C(C(=O)C(C(=O)OC)C(C)C2)C1c1cccc(OC)c1OC (stereo not drawn)
→ -0.2 | 4.4
C/C(=C\C(=O)c1ccccc1)Nc1ccc(N2CCOCC2)cc1
→ 0.15 | -0.32
O=c1c2ccccc2nc2n1C(CSc1ccc(Cl)cc1Cl)CN2 (stereo not drawn)
→ x | 0.47
O=S(=O)(Nc1cccnc1Oc1ccc(Cl)cc1)c1ccccc1
→ 0.2 | 0.3
O=C(O)c1cccc(-n2cccc2)c1
→ -0.5 | x
COc1ccc(Oc2ncccc2NC(=O)Nc2cccc(C(F)(F)F)c2)cc1
→ x | 0.32
COc1cc(Cl)ccc1NC(=S)N(CCCN1CCOCC1)C1CCN(C(C)=O)CC1
→ 0.45 | 0.34
Cc1cc(-c2ccc(F)cc2)nc2cc(C(=O)Nc3ccccc3C(F)(F)F)nn12
→ -0.25 | 2.3

Further structures:
Results follow in this order: AID504770 | CapD inh
O=C(CSc1n[nH]c(-c2ccc(Br)cc2)n1)N1CCCC1
→ 0.3 | x
O=C(O)COc1cccc(NC(=O)c2ccccc2)c1
→ 2 | -0.44
CN1c2ccsc2C(=O)/C(=C\Nc2ccccc2Cl)S1(=O)=O
→ 0.3 | -0.36
COc1cc(OC)nc(N2CCNCC2)n1
→ x | -0.15
Cc1ccccc1C(=O)NC(=S)N1CCC(C)CC1
→ -0.7 | 0.27
Nc1cccc(F)c1-c1nc(-c2ccncc2)n[nH]1
→ 0.2 | 0.14
O=C(Nc1ccccc1Cl)C1CCC1
→ 0.45 | x
O=C(NC1CCN(Cc2ccccc2)CC1)c1ccc(Cl)cc1
→ x | 0.46
CC(Oc1ccccc1)C(=O)N1CCN(C(=O)C(C)Oc2ccccc2)CC1 (stereo not drawn)
→ 0.55 | 0.46
O=C(OCc1cccc(OCc2ccccc2)c1)N1CCN(c2cccc(Cl)c2)CC1
→ x | 0.32
CCOC(=O)N1CCN(CC(O)COc2c(OC)cccc2OC)CC1 (stereo not drawn)
→ -0.1 | 0.28
CCC(C)C(NC(N)=O)C(=O)Nc1ccc(S(=O)(=O)Nc2ccc(OC)cc2)cc1 (stereo not drawn)
→ 1.8 | x
Nc1nnc(SCc2c(Cl)cccc2Cl)s1
→ x | -0.03
COc1ccc(N2CCN(CNC(=O)c3ccccc3)CC2)cc1
→ -0.7 | x
Cc1cc2c(cc1C)NC(CC(=O)NCc1ccccc1)C(=O)N2 (stereo not drawn)
→ -0.7 | 3
N#Cc1cccc(C#N)c1Sc1ccc(Cl)cc1
→ -0.75 | 2.4
CCOC(=O)CN1CCOc2ccccc21
→ 0.15 | 0.16
CC1(C)CC(=O)c2sc(NC(=O)CCCc3ccccc3)nc2C1
→ 0.3 | 0.19
N#CCSc1nc(-c2ccccc2)c(-c2ccccc2)o1
→ -0.4 | x
CCOC(=O)c1cnc2ccc([N+](=O)[O-])cc2c1NCc1ccc(OC)cc1
→ x | -0.59
CCN(CC)S(=O)(=O)c1ccc(C(=O)NCCSc2c[nH]c3ccccc23)cc1
→ -0.35 | 0.7
Cc1ccc(/C=C/C(=O)OC(C)C(N)=O)o1 (stereo not drawn)
→ -0.05 | x
CCOC(=O)C1=C(C)NC(=O)NC1c1c(OCC(=O)N2CCOCC2)ccc2ccccc12 (stereo not drawn)
→ x | -1.1
CCC1CCCCN1C(=O)c1cnn(-c2ccc(C)cc2)c1-n1cccc1 (stereo not drawn)
→ 0 | -0.51
